AF4-AF9 inh: MLL-AF4/AF9 protein interaction inhibition; AlphaScreen, biotin-AF4 peptide binding to FLAG-AF9; inhibition, % at 10 µM; actives 0.47% (n = 350,000); P42568;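 active means every replicate reaching a set inhibition limit, whatever the replicate mean, cut at about 25% in these data; inconclusive means mean inhibition reaches that limit but some replicates miss it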;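 further: 0% = plate neutral control median and 100% = total signal loss; the record names both 10 and 1 µM as test concentration; the first replicate is given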
HNF4A DNA FP: change in binding of human HNF4 alpha to DNA; HNF4a-FITC DNA binding, fluorescence polarization, 1 h; activity change, % at 10 µM; actives 0.3% (n = 360,000); in the data active means activity change above about 30%, passing the limit was not always enough;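 further: controls were the assay level and a saturating level of protein; the project sought stronger binding though the title names inhibitors; some compounds called inactive have numbers as strong as hits; positive values seem to mean higher polarization but the record does not say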
Target sequence (P41235 whole entry, looked up): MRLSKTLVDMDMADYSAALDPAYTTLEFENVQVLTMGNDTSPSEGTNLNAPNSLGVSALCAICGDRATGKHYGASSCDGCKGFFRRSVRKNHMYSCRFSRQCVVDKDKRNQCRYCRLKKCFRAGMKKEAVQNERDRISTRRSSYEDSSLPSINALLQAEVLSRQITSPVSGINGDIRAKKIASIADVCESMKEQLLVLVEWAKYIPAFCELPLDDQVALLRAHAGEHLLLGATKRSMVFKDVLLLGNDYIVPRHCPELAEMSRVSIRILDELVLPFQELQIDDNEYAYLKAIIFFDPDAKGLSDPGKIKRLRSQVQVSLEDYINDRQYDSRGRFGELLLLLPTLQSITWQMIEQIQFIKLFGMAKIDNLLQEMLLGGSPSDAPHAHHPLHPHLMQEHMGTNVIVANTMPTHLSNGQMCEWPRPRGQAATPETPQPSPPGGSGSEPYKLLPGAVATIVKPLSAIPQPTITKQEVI
Ecoli growth: inhibitors of Escherichia coli growth | OD600 absorbance (test concentration not listed) | AID 1053175 | actives 0.21% (n = 330,000) | OD600, 23 h; hits give low values;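 active means OD600 absorbance below the run mean of sample wells minus 3.6 SD, in any replicate, cut at about 0.56 in these data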;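 further: stock transfer was 300 nL into about 60 µL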
Ecoli rRNA inh: selective bacterial rRNA inhibition in E. coli. E. coli WT GFP vs humanized-ribosome RFP mutants, fluorescence, 24 h; hits give low values; DMSO median 0, no signal -100. GFP signal change (wild-type ribosome), % (no concentration beside the values). AID 720706. actives 1.6% (n = 350,000);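 active means significant combined selectivity score with lowered wild-type GFP, culture density cut under 30%, mutant RFP and density less affected; inactive means any of these conditions unmet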; further: one replicate is shown; some compounds called inactive have numbers as strong as hits
Vif TR-FRET: inhibitors of Vif binding to APOBEC3G peptide, primary screen, biochemical, TR-FRET, GST-Vif 1-94, biotin-A3G peptide, dose response retest (AID 1117319); TR-FRET GST-Vif / biotin-A3G peptide binding; higher % means a stronger effect; test concentration not given here; strong numbers were not always called active; inhibition, %; hits with a dose series show IC50 in µM; actives 0.57% (n = 260,000);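 active means above the screen mean plus three standard deviations and confirmed in dose response; inconclusive means results disagree or hit not tested in dose response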;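 further: Vif residues 1-94 fused to GST binding biotinylated APOBEC3G peptide 110-148; 0% = full assay without inhibitor and 100% = GST in place of GST-Vif; retest series ran down from 100 µM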
ALR H2O2 inh: blocks human ALR sulfhydryl oxidase activity. P55789. purified ALR, DTT oxidation, H2O2 HRP-luminol luminescence. inhibition, % (concentration not given with the values). actives 3.8% (n = 290,000);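 active means mean and each replicate at 75% or more; inconclusive means only one of the two met; inactive means neither met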;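 further: stock transfer was 7.5 nL into about 7.5 µL; 0% = neutral wells and 100% = wells with inactivated enzyme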
Target sequence (P55789 whole entry, looked up): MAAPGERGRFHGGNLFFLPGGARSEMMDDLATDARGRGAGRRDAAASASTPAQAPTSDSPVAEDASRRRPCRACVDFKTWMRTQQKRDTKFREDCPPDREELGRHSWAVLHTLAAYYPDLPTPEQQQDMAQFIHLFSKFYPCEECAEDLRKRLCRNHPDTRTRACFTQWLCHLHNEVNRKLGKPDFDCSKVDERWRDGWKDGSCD
FGF22 binding: FGF22 (human) thermal shift binding; Q9HCT0; actives 1.5% (n = 340,000); AID 651658; recombinant FGF22 thermal shift, SYPRO orange fluorescence; percent of sucrose octasulfate shift, DMSO zero; calls only at 9.99 µM;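 active means melting point raised past a set limit in the mean and every replicate; inconclusive means no clear call; three in four hits are not shown here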
Target sequence (Q9HCT0 whole entry, looked up): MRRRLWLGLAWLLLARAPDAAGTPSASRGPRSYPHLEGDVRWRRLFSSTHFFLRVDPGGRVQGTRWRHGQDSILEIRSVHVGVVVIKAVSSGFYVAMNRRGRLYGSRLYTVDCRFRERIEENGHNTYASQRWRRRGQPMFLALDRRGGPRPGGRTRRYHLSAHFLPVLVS
Ecoli rRNA inh OD600: second read-out of Ecoli rRNA inh, no call of its own (marks repeat the call); OD600 change, %; measured here: OD600 growth;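 optical density of the mix in the first replicate; 0 = DMSO median and -100 = no signal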
Ecoli rRNA inh RFP: also measured in Ecoli rRNA inh; calls as there; RFP signal change, %; measured here: RFP humanized mutant strains;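 first replicate; 0 = DMSO median and -100 = no signal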
* hit, by the source's call; i = inactive; ? = inconclusive; . = no result given; & = joins results of further samples. This is a subset (hit frequency here may not be typical).

A first look, 3 compounds:
SMILES | AF4-AF9 inh | HNF4A DNA FP | Ecoli growth | Ecoli rRNA inh | Ecoli rRNA inh OD600 | Ecoli rRNA inh RFP | Vif TR-FRET | ALR H2O2 inh | FGF22 binding
Cc1ccccc1NC(=O)CSc1n[nH]c(-c2ccccn2)n1 | -1.3 | 1.6 | 0.65 | -40 | -62 | -3.3 | 5% | -3 | i
Cc1nc2ccc3nc(NC(=O)c4ccc5c(c4)OCCO5)sc3c2s1 | . | 6.2 | 0.69 | . | . | . | -27% | -7 | .
O=C(CN1C(=O)c2ccccc2S1(=O)=O)N1CCc2ccccc21 | . | 0.1 | 0.66 | . | . | . | 1% | -5 | .

The whole of this part, from the first entry:
SMILES | AF4-AF9 inh | HNF4A DNA FP | Ecoli growth | Ecoli rRNA inh | Ecoli rRNA inh OD600 | Ecoli rRNA inh RFP | Vif TR-FRET | ALR H2O2 inh | FGF22 binding
Cc1ccccc1NC(=O)CSc1n[nH]c(-c2ccccn2)n1 | -1.3 | 1.6 | 0.65 | -40 | -62 | -3.3 | 5% | -3 | i
Cc1nc2ccc3nc(NC(=O)c4ccc5c(c4)OCCO5)sc3c2s1 | . | 6.2 | 0.69 | . | . | . | -27% | -7 | .
O=C(CN1C(=O)c2ccccc2S1(=O)=O)N1CCc2ccccc21 | . | 0.1 | 0.66 | . | . | . | 1% | -5 | .
Cc1cc(-c2nc(C)c(C(=O)NNS(=O)(=O)c3ccccc3)s2)no1 | . | -1.4 | 0.64 | -12 | -18 | 1.1 | -5% | 29 | i
C/C=C/c1ccc2c(c1)O[C@H](CN(C)C(=O)CN(C)C)[C@@H](C)CN([C@H](C)CO)S2(=O)=O | -1.4 | . | . | 0 | -5 | -2.5 | . | . | i
COc1ccc(CNC(=O)CSc2nc3ccc(OC)cc3[nH]2)cc1 | 0.7 | -2.7 | 0.69 | 2 | 7 | -1.0 | . | -3 | i
C[C@H]1CN([C@@H](C)CO)C(=O)c2cc(N(C)C)ccc2O[C@@H]1CN(C)Cc1ccc(Cl)c(Cl)c1 | 29* | . | . | -59 | -79 | -14 | . | . | i
CS(=O)(=O)N1[C@@H](C#N)[C@H](c2ccc(C#CC3CC3)cc2)[C@@H]1CO | -0.8 | . | . | 2 | 5 | -1.4 | . | . | i
COc1cc(-c2cc(NC=O)c3ncc(-c4ccc(C(C)=O)cc4)n3c2)cc(OC)c1OC | -1.1 | 5.0 | . | 1 | 9 | 7.4 | . | . | i
CC1CCN(C(=O)c2ccccc2NC(=O)c2cccs2)CC1 | -0.8 | 0.1 | 0.7 | 11 | 10 | -0.3 | . | -4 | i
O=C(CN1C(=O)C(=O)c2ccccc21)c1ccc(Cl)cc1 | -2.7 | -2.0 | 0.69 | 0 | 3 | 2.5 | . | -2 | i
Cc1cccc(NC(=O)/C(C#N)=C/c2cn(CC(=O)NCc3ccco3)c3ccccc23)c1C | . | 1.0 | 0.75 | . | . | . | -16% | -5 | .
CN1CCN(c2ccccc2NC(=O)Cc2ccc(Cl)cc2)CC1 | -20 | -2.2 | 0.72 | 6 | 6 | -11 | 3% | -2 | i
O=c1oc(-c2cccnc2)nc2ccccc12 | . | -0.5 | 0.75 | . | . | . | 72% | . | .
O=C(C[C@H]1CC[C@H]2NC[C@@H](O)COC[C@@H]2O1)NCc1ccc2c(c1)OCO2 | 0.8 | . | . | 1 | 6 | -0.3 | . | . | i
Cc1cc(C)nc(SCc2nnc(SCc3ccc([N+](=O)[O-])cc3)n2Cc2ccco2)n1 | 2.4 | -1.6 | 0.68 | -39 | -45 | -20 | ? | 19 | i
COc1ccc(S(=O)(=O)N(C)C[C@H]2Oc3c(NS(=O)(=O)c4cn(C)cn4)cccc3C(=O)N([C@H](C)CO)C[C@@H]2C)cc1 | -3.2&1.5 | 1.1 | 0.75 | 1&1 | 8&2 | -0.4&-0.5 | . | -1 | i
COc1ccc(C2C3=C(CC(C)(C)CC3=O)Oc3ncn(CC(C)C)c(=N)c32)cc1 (centres undefined) | . | -2.6 | 0.64 | . | . | . | 22% | -9 | .
COc1ccc(NC(=O)N[C@H]2CC[C@@H](CCn3cc(-c4ccccn4)nn3)O[C@@H]2CO)cc1 | -0.5 | . | . | 0 | 5 | -2.3 | . | . | i
CCCS(=O)(=O)N1CCC(C(=O)c2cccc(C(F)(F)F)c2)CC1 | 2.3 | -3.0 | 0.68 | -15 | -14 | -3.6 | 1% | -14 | i
CCCNC(=O)N1CCC(Cc2ccccc2)CC1 | -1.4 | -3.3 | 0.7 | 0 | -6 | 3.0 | 2% | -9 | i
COc1cc(NC(=O)CN2C(=O)NC(c3ccccc3)(c3ccccc3)C2=O)c(C)cc1[N+](=O)[O-] | 5.5 | -1.8 | 0.66 | -13 | -14 | -3.9 | 12% | -17 | i
O=C(CNc1cccc(S(=O)(=O)N2CCOCC2)c1)Nc1ccc(C(F)(F)F)cc1 | -5.3 | 2.7 | 0.69 | -5 | -15 | 3.6 | 8% | 1 | i
N#Cc1ccccc1NC(=O)CSc1nnc(-c2ccc(F)cc2)n1-c1ccccc1 | . | -1.2 | 0.71 | . | . | . | 9%&-8% | . | .
C[C@@H]1CN([C@@H](C)CO)C(=O)c2cc(NC(=O)c3ccncc3)ccc2O[C@@H](C)CCCCO[C@@H]1CN(C)C(=O)Nc1cccc2ccccc12 | 1.2 | . | . | -2 | -10 | 0.4 | . | . | i
C[C@@H]1CN([C@@H](C)CO)C(=O)c2cc(NS(=O)(=O)c3cn(C)cn3)ccc2O[C@@H]1CN(C)C(=O)Nc1ccc2c(c1)OCO2 | -1.9 | . | . | 6 | 11 | -1.1 | . | . | i
O=C(NCC[C@@H]1CC[C@H](NC(=O)c2ccc3c(c2)OCO3)[C@@H](CO)O1)Nc1cc(F)ccc1F | 2.6 | . | . | -3 | -4 | 3.2 | . | . | i
Cc1ccc(/C=C/C(=O)c2ccc(C)cc2)cc1 | . | 0.3 | 0.72 | . | . | . | -8% | 9 | .
Cc1ccc(S(=O)(=O)Nc2c(C)n(C)n(-c3ccccc3)c2=O)cc1C(=O)OC(C)C(=O)N(C)c1ccccc1 (centres undefined) | 0.9 | -17 | 0.71 | 4 | -8 | 3.2 | . | . | i
O=C(NCCN1CCCCC1)[C@H]1[C@H](CO)[C@H]2Cn3c(cccc3=O)[C@H]2N1Cc1ccccn1 | -0.5 | . | . | 5 | 8 | -1.6 | . | . | i
COc1ccc(C(CCNCc2ccc(N(C)C)cc2)c2ccccc2)cc1 (centres undefined) | 50* | 3.0 | 0.64 | -28 | -61 | 15 | . | 11 | i
CCC(Sc1nc(N)c(NC(=O)c2ccc(OC)cc2)c(=O)[nH]1)C(=O)O (centres undefined) | -2.1 | 1.2 | 0.7 | 4 | 6 | -4.4 | -6% | -1 | i
O=C(Oc1cc2oc(=O)c3c(c2cc1Cl)CCCC3)c1ccco1 | . | 0.4 | 0.66 | . | . | . | -2% | . | .
COC(=O)Cc1c(O)ccn(Cc2ccc(F)cc2)c1=O | . | 0.9 | 0.73 | . | . | . | 7% | 3 | .
O=C(CSc1nncs1)NCCNC(=O)CSc1nncs1 | -24 | 3.0 | 0.66 | 5 | 6 | -0.4 | 4% | 2 | i
COc1cccc2sc(=NC(=O)CS(=O)(=O)c3ccc(Cl)cc3)n(C)c12 | -1.8 | -0.3 | 0.65 | 26 | 12 | -2.7 | 0% | -7 | i
Cc1ccc(/C=N/NC(=O)Cc2cccn2C)cc1 | . | 5.0 | . | 0 | -15 | -2.8 | -2% | 28 | i
Cc1ccc(S(=O)(=O)N(C)C[C@H]2Oc3ccc(NC(=O)C4CCCCC4)cc3CC(=O)N([C@@H](C)CO)C[C@H]2C)cc1 | 1.0 | . | . | -2 | -9 | 0.3 | . | . | i
COC(=O)C[C@@H]1CC[C@@H](NS(=O)(=O)c2cccc(OC)c2)[C@@H](CO)O1 | -0.2 | 4.9 | . | 8 | 21 | 2.9 | . | . | .
COc1ccccc1/C=C\C=N\NC(=O)c1ccco1 | 0.5 | -0.1 | . | 12 | 6 | 0.5 | 12% | -3 | i
Cc1noc(C)c1S(=O)(=O)N1CCCC(C(=O)N2CCC(C)CC2)C1 (centres undefined) | . | 3.3 | 0.7 | . | . | . | -7% | -4 | .
CCOc1ccc(-c2nnn(CC(=O)NCCc3c[nH]c4ccccc34)n2)cc1 | . | -2.8 | 0.69 | . | . | . | 3% | -11 | .
C[C@H](CO)N1C[C@H](C)[C@@H](CN(C)C(=O)C2CCC2)Oc2ncc(-c3cccc(F)c3)cc2C1=O | -3.9 | . | . | 0 | 17 | 2.0 | . | . | i
CC=Cc1ccc2n(c1=O)C[C@@H]1[C@@H](CO)[C@H](C(=O)NC3Cc4ccccc4C3)N(CCC)[C@H]21 (mixture of isomers) | -11 | . | . | -8 | -15 | 4.2 | . | . | i
Cc1noc(C)c1NC(=O)N(C)C[C@@H]1OCCCC[C@@H](C)Oc2ccc(NS(=O)(=O)c3ccc(F)cc3)cc2C(=O)N([C@@H](C)CO)C[C@H]1C | 2.0 | . | . | -1 | -7 | -0.9 | . | . | i
C=C1CCN(c2ccc(C(=O)NCc3ccccc3)cc2[N+](=O)[O-])CC1 | 11 | -1.3 | 0.6 | -20 | -36 | -25 | . | 3 | i
COc1ccc(OCc2nnnn2-c2ccccc2)cc1 | . | 1.8 | 0.72 | . | . | . | 10% | -3 | .
Cc1cc(C(=O)Nc2cccc3c2O[C@H](CN(C)Cc2ccncc2)[C@@H](C)CN([C@@H](C)CO)C3=O)n(C)n1 | -1.6 | . | . | -1 | 2 | -0.3 | . | . | i
c1ccc(-c2nnc(-c3ccncc3)o2)cc1 | . | -2.3 | 0.65 | . | . | . | 71% | -4 | .
O=C1COc2ccc(S(=O)(=O)CCC(=O)N3CCN(c4cccc(Cl)c4)CC3)cc2N1 | 1.2 | -1.7 | 0.7 | -8 | -15 | 1.1 | . | 7 | i
COc1ccc(CNC(=S)N/N=C(/C)c2ccccc2)cc1 | 2.7 | -2.4 | . | -18 | -18 | -3.0 | 0% | 2 | i
C[C@@H]1CN([C@@H](C)CO)C(=O)c2cc(-c3cccc(F)c3)cnc2O[C@H]1CN(C)C(=O)c1cccc(F)c1 | 2.2 | . | . | -3 | -10 | -1.5 | . | . | i
COc1cccc(NC(=O)N2C[C@@H](O)COC[C@H]3O[C@@H](CC(=O)N(C)C)CC[C@@H]32)c1 | -5.0 | . | . | -1 | -13 | -0.1 | . | . | i
C=CCc1cccc(/C=N/NC(=O)c2ccc3nc[nH]c3c2)c1O | 6.3 | -2.5 | . | -3 | -11 | -4.7 | . | . | i
CC(=O)NCC(=O)NC(C(=O)Nc1ccc2c(c1)OCCO2)c1ccccc1 (centres undefined) | . | 0.6 | 0.76 | . | . | . | 7% | -2 | .
O=C(c1ccc(S(=O)(=O)N2CCCCC2)cc1)N1CCN(CCN2C(=O)c3cccc4cccc(c34)C2=O)CC1 | 2.9 | -5.2 | 0.72 | 8 | 11 | -1.2 | -11% | -7 | i
Cc1cccnc1CC(C)NC(=O)c1cc(COc2cncc(Cl)c2)on1 (centres undefined) | -0.8 | 1.4 | 0.65 | -2 | -6 | -0.4 | -2% | -11 | i
Cc1cc(-c2cc(-c3ccccc3)on2)nc(NC2CCCC2)n1 | -0.9 | -0.5 | 0.71 | 2 | 6 | 3.0 | 5% | -6 | i

Compound activity deposited in PubChem by several laboratories.
